VDR inh: inhibitors of human vitamin D receptor | P11473 | VDR-SRC2-3 peptide fluorescence polarization, 2 h | Potency, µM, without a hit: max response, negative = inhibition, most hits filed as inhibitors | hit rate 0.93% among 400,000 | AID 504847; active = well fitted inhibition curve with a large enough effect; inconclusive = small, poorly fitted or top-dose-only effect, or another doubt; inactive = no such curve, though single readings can be large or run the other way; note: series mostly up to about 120 µM
Target sequence (P11473 whole entry, looked up): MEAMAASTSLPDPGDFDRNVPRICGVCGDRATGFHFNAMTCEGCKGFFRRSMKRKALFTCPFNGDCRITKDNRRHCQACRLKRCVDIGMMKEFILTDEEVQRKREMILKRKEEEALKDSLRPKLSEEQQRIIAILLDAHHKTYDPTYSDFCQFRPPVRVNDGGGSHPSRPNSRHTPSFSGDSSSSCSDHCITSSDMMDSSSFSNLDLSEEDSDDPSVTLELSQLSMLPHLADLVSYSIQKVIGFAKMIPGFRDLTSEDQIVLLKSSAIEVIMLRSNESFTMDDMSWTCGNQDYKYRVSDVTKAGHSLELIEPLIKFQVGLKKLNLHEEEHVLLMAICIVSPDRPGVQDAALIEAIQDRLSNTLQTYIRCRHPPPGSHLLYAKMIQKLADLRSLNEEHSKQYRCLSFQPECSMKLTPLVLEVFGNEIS
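VDR–SRC2-3 interaction, FP format. Cmpds 23 nl via pintool, brief spin, 2 h ambient incubation.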
Numbers without * were called inactive; ? = inconclusive; & = joins results of further samples. % is set by controls: 0 for no effect and ±100 for the full control effect; potency is the fitted concentration of half-maximal effect. The list is partial; rates above refer to the full screens.

mol	VDR inh
NNC(=O)CNC(=O)c1ccc(F)cc1	-1%
O=c1nc2sc3ccccc3n2c(=O)n1-c1ccc(Cl)cc1	5%
COc1ccc(NC(=O)N2CCC(C(=O)c3ccc(F)cc3)CC2)cc1	13%
CC(=O)Nc1nnc(-c2c(-c3ccccc3Cl)noc2C)o1	20%
Cc1ccc(S(=O)(=O)NCCCCCC(=O)Nc2ccccc2)cc1	-1%
Cc1cccc(CSc2cn(CC(=O)N3CCCC3)c3ccccc23)c1	6%
NC(=O)C1CCN(C(=O)COc2ccc3ccccc3c2Br)CC1	?
CN(C)c1ccc(N=Nc2cccc(F)c2)cc1	-9%
O=C(CCNS(=O)(=O)c1ccc(Cl)cc1)N1CCOCC1	3%
CCOc1ccc(-c2cc3nc(C4CCN(C(=O)OC(C)(C)C)CC4)c(C(=O)Nc4ccc(C)c(F)c4)cn3n2)cc1	-18%
COc1ccc2c(c1)OC(O)(C(F)(F)F)CC2=O (centres undefined)	7%
CC1=C(C(=O)Nc2cccnc2)C(c2cccc(Br)c2)n2nc(SCc3ccccc3)nc2N1 (centres undefined)	-23%
CCN(CC)c1ccc(NC2CC(=O)N(CCc3ccc(OC)cc3)C2=O)cc1 (centres undefined)	?
CC(C)CN1C2CCCC1CC(NC(=O)c1ccc([N+](=O)[O-])cc1)C2 (centres undefined)	-18%
CCN(CC)S(=O)(=O)c1ccc(N/N=C/c2ccc(OC)c(OC)c2OC)nc1	-27%
CCSc1nnc2c(n1)OC(c1ccc(C)s1)Nc1ccccc1-2 (centres undefined)	1%
CC(C)(C)C(=O)CSc1ccc(S(=O)(=O)N2CCCC2)cn1	-11%
COC(=O)[C@H](C)NC(=O)NCc1ccco1	-3%
CCCS(=O)(=O)N1CCCC(C(=O)NCCN(C)Cc2ccccc2)C1 (centres undefined)	9%
CCOC(=O)C1=C(C)Nc2nc3ccccc3n2C1c1cccs1 (centres undefined)	-1%
CCN(CC)CCNC(=O)CCc1c(C)nc2c(c(C)nn2-c2ccc(C)c(C)c2)c1C	20%
CN(c1ccc(C(=O)NCCSCc2c(F)cccc2Cl)cc1)S(C)(=O)=O	-22%
O=C(Nc1cccc(Br)c1)c1cc2ccccc2o1	-3%
CC(C)CC(=O)c1c[nH]c(C(=O)NCc2cccnc2)c1	12%
CC1(C)N=C(SCC(=O)Nc2ccc(Cl)cc2)C(c2ccccc2)=N1	2%
COc1ccc(OC)c(NC2=NC3(CCCC3)N=C(N)N2)c1	21%
C=C(C)CSc1nnc2n(Cc3ccccc3)c(=O)c3c4c(sc3n12)CCC4	-10%
Cc1ccc(S(=O)(=O)CCC(=O)Nc2nnc(-c3cccs3)o2)cc1	-4%
COc1ccc(N2C(=S)NC3c4cc(Cl)ccc4OC2(C)C3C(=O)N(C)C)cc1 (centres undefined)	-12%
C#Cc1ccc(CN2CCN(CCCc3ccccc3)C(CCO)C2)cc1 (centres undefined)	-1%
C=CCn1c(SCC(=O)NCc2ccco2)nc2sc3c(c2c1=O)CCCC3	-9%
Nc1[nH]n2c(=O)cc(-c3ccccc3)nc2c1N=Nc1ccccc1	-13%
CN(C)C(=O)c1cc(C(=O)c2ccc(F)cc2F)c[nH]1	-2%
CCOc1ccccc1C(=O)Nc1nc2c(s1)CC(C)CC2 (centres undefined)	10%
CCC1CCCCN1C(=O)c1cc(COc2ccc3ncccc3c2)on1 (centres undefined)	0%
COc1ccc(N(CC(=O)Nc2ccc(F)cc2)S(=O)(=O)c2ccccc2[N+](=O)[O-])c(OC)c1	27%
Cc1ccc(NC(=O)CCC(=O)N/N=C/c2ccc(O)cc2)cc1	11%
O=C(NN=C1CCCCCC1)c1cccnc1	-3%
CC(C)C(=O)Nc1nnc(-c2ccco2)s1	-4%
CCC(C)NC(=O)CN1C(=O)c2cccc3cccc1c23 (centres undefined)	8%
COc1ccc(-c2noc(-c3ccccc3C(=O)NCc3ccco3)n2)cc1	8%
ClC(Cl)(Cl)c1nc2ccccc2n2nncc12	-7%
CCC(C)(C)NC(=O)C(OC(=O)c1cc2sccc2n1C)c1ccc(OC)cc1 (centres undefined)	-6%
CCOC(=O)C1CCCN(C2=NC(=O)/C(=C/c3ccc(OC)c(OC)c3)S2)C1 (centres undefined)	8%
Cc1ccc(CSc2oc(-c3cccs3)nc2S(=O)(=O)c2ccccc2)cc1	-1%
Fc1ccc2nc(C3CCN(Cc4nc(CC5CC5)no4)CC3)[nH]c2c1	18%
O=C(CN1CCCCCC1)Nc1ccc(Cl)cc1F	11%
COc1cccc(-c2cc(C(=O)Nc3c(C)nn(Cc4ccccc4Cl)c3C)no2)c1	-9%
O=C(Cn1nc(C(=O)O)c2ccccc2c1=O)Nc1cccc(S(=O)(=O)N2CCCCC2)c1	-3%
O=C1c2[nH]nc(-c3ccccc3)c2C(c2ccccc2)N1c1cccc(C(F)(F)F)c1 (centres undefined)	-4%
COc1ccccc1CN(Cc1nc2ccccc2c(=O)[nH]1)C(=O)Nc1ccccc1C	-1%
COc1ccccc1N1CCN(C(=O)c2cccc(S(=O)(=O)N3CCCCCC3)c2)CC1	5%
Cc1ccc(NC(=O)Cc2c[nH]c3ccccc23)cc1S(=O)(=O)N1CCCCCC1	-10%
Cc1ccc(C)c(NC(=S)NCCN(C2CCCCC2)C2CCCC2)c1	2%
Fc1cccc(/C=N/Nc2ccc(Cl)nn2)c1	-9%
Cc1ccc(-n2c(SCC(N)=O)nnc2-c2ccccn2)cc1C	-19%
CS(=O)(=O)c1cccc(C(=O)OCC(=O)Nc2ccc3c(c2)OCO3)c1	-10%
Cc1ccc(/C=N/NC(=O)c2cccc(NC(=O)c3ccccc3C)c2)o1	12%
COc1ccc(C(=O)NCCc2nnc3ccc(SCC(=O)N4CCCCC4)nn23)cc1	19%
NC(=O)N1CCN(C(=O)c2ccco2)CC1	5%

Next part
mol	VDR inh
Cc1ccc(CNC(=O)Nc2ccccc2)c(C)c1	1%
Cc1c(C(C)CCCO)oc(=O)c2c1Oc1c(C)c(C(C)C[C@@H](C)O)oc(=O)c1C2 (some centres undefined)	-16%
CCOC(=O)N1CCN(C(=O)N2CCOCC2)CC1	23%
COc1ccc(/C=C2\C(=O)N(c3c(Cl)cc(Cl)cc3Cl)N=C2NC(=O)c2cccc([N+](=O)[O-])c2)cc1	?
CCCCn1c(N)c(N(CCOC)C(=O)C2CCN(S(=O)(=O)c3ccc(Cl)cc3)CC2)c(=O)[nH]c1=O	8%
Nc1nccc(-c2nn(-c3ccc(Cl)cc3)ccc2=O)n1	-7%
CCOC(=O)c1ccccc1NC(=O)COC(=O)CSc1ccccc1	4%
Cn1cnc(S(=O)(=O)NC2CCN(Cc3c(F)cccc3Cl)CC2)c1	-15%
CCOc1ccc(-c2cc3c(=O)n(Cc4nc(-c5ccc(OC(C)C)cc5)oc4C)ccn3n2)cc1Cl	8%
CC(C)C(c1nnnn1C1CCCC1)N1CCC(C(N)=O)CC1 (centres undefined)	-2%
CS(=O)(=O)N1CCC2(CCCN(C(=O)Nc3ccccc3)C2)CC1	1%
Cc1ccccc1NC(=O)c1ccccc1NC(=O)Cc1cccc2ccccc12	-5%
CCn1c(/C=C/c2ccccc2[N+](=O)[O-])nc2ccccc2c1=O	-4%
Cc1nn(C)cc1C(=O)Nc1cc(Oc2ccc(Cl)cc2)cc([N+](=O)[O-])c1	-16%
COC(=O)c1ccc(NC(=O)C2CCCCC2C(=O)O)cc1 (centres undefined)	21%
Cc1cccc(NC(=O)CSc2nc3ccc(NC(=O)c4ccco4)cc3s2)c1	11%
COc1ccccc1N1CCN(C(c2cccs2)C(C)NC(=O)C(=O)N2CCOCC2)CC1 (centres undefined)	-12%
O=C(COC(=O)c1ccco1)Nc1cc(S(=O)(=O)N2CCOCC2)ccc1Cl	0%
CC1CCCC(NC(=O)COC(=O)c2ccccc2NC(=O)c2ccco2)C1C (centres undefined)	-8%
CN1CCN(C(=O)/C=C/c2ccc(C#N)cc2)CC1	0%
O=C(NCCc1ccc(Cl)cc1)c1ccc2nc[nH]c2c1	-22%
C/C(=N\Nc1c(Cl)c(Cl)nc(C(=O)O)c1Cl)c1ccc(O)cc1	22%
Cc1ccc(C(=O)O)cc1S(=O)(=O)NCC1CCCO1 (centres undefined)	2%
O=C(N/N=C/c1c(F)c(F)c(F)c(F)c1F)c1ccc(Cn2cc(Br)cn2)o1	-11%
Cc1ccc(C(=O)NCCc2n[nH]c(=S)n2C)cc1	15%
C/C(=C/C#N)Nc1ccc(C)cc1	4%
CCOC(=O)C1=CN(Cc2ccc(Br)cc2)S(=O)(=O)N(C)C1C (centres undefined)	-8%
CC(=O)NNC(=O)c1cc2sccc2s1	-5%
CCCC(O)(c1ccc(Cl)cc1)C(CN1CCOCC1)c1ccccc1 (centres undefined)	-15%
C=CCOc1ccccc1/C=N/NC(=O)c1ccc(Cl)cc1Cl	6%
COC(=O)[C@H](CCSC)NC(=O)Nc1ccc(OC)cc1	1%
CCOc1ccc(Br)cc1S(=O)(=O)N1CCSC1	-20%
CCOC(=O)c1ccc(NC(=O)c2nc[nH]c2C(=O)NC2CCN(C(=O)OC(C)(C)C)CC2)cc1	17%
CNC(=S)N/N=C/c1c(C(=O)OC)cnn1-c1ccc(F)cc1F	2%
O=C(CSc1ccc(F)cc1)Nc1ccc2c(c1)C(=O)NC2=O	3%
COc1cccc(-c2cc(C(=O)NC3CCCC3)no2)c1	2%
Cc1ccc(C)c(NC(=O)C2CCN(c3ncnc4c3nc3n4CCCCC3)CC2)c1	13%
Cc1ccc(OCc2ccc(C(=O)O)o2)cc1C	20%
O=C(NCCc1cnn(-c2ccccc2)c1)c1cc(COc2c(F)cccc2F)on1	-4%
CCc1ccc(-c2[nH]c3c(c2-c2c(-n4cccc4)n(C)c(=O)[nH]c2=O)c(=O)[nH]c(=O)n3C)cc1	17%
Cc1noc(C)c1S(=O)(=O)N(CCc1ccccc1)Cc1ccccc1	-2%
c1ccc2c(c1)oc1c(Nc3ccc(CN4CCOCC4)cc3)ncnc12	3%
Cc1nnc(SCC(=O)N2CCN(c3cccc(Cl)c3)CC2)n1C1CC1	1%
CCN(C[C@H]1N[C@@](C)(C(=O)OC)[C@H]2C(=O)N(Cc3ccccc3)C(=O)[C@@H]12)C(=O)C1CCCCC1	-2%
Cc1ccc(S(=O)(=O)/N=C(/c2ccc(F)cc2)N(C)C)cc1	-10%
O=c1ccc2ccc(OCc3nnc(-c4ccccc4Br)o3)cc2o1	-5%
CCCC[C@@H]1C=C(C(=O)O)[C@H](c2ccc(C#N)cc2)N1S(=O)(=O)c1ccc(C)cc1	-13%
CCOc1ccccc1C(=O)NC1CCNCC1	2%
C=C[C@@]1(C)CC(=O)[C@@]2(O)[C@@]3(C)[C@@H](O)CCC(C)(C)[C@@H]3[C@H](OC(=O)CCN(C)C)[C@H](OC(C)=O)[C@@]2(C)O1	7%
Cc1cc(C)nc(Nc2cccc3ccccc23)n1	-6%
CONC(=O)c1cc(OCC(F)(F)F)ccc1OCC(F)(F)F	8%
O=C(Nc1ccsc1C(=O)O)c1cccc(Oc2ccccc2)c1	-7%
CC1(C)Cc2c(C#N)c(OCC(=O)c3ccc(Cl)cc3)nc(-c3ccco3)c2CO1	3%
Cn1c(COc2ccccc2)nnc1SCC(=O)Nc1nnc(C2CC2)s1	-17%
CC(Nc1ccc(-c2nc(-c3ccco3)no2)cc1[N+](=O)[O-])c1ccccc1 (centres undefined)	1%
Cc1ccc(S(=O)(=O)N2CCC(C(=O)Nc3ccc4c(c3)OCO4)CC2)cc1	24%
CCOC(=O)NC(=O)/C(C#N)=C(/C)N(C)C	-19%
CCOC(=O)c1sc(NC(=O)C(CC)Sc2nnc3c4ccccc4n(CC)c3n2)nc1C (centres undefined)	-18%
Cc1ccc(NC(=O)CSc2nnc(-c3ccccn3)n2N)cc1F	2%
Cc1cccc(CC(=O)N2CC(=O)Nc3ccc(C)cc3C2c2ccc(F)cc2)c1 (centres undefined)	3%

Single values from the list.
Cc1ccc(OCc2ccc(C(=O)O)o2)cc1C in VDR inh reads 20%
O=C(CSc1ccc(F)cc1)Nc1ccc2c(c1)C(=O)NC2=O in VDR inh reads 3%
Cc1nnc(SCC(=O)N2CCN(c3cccc(Cl)c3)CC2)n1C1CC1 in VDR inh reads 1%

Part of the list above in order of SMILES length, ascending.
mol	VDR inh
C=CCOc1ccccc1/C=N/NC(=O)c1ccc(Cl)cc1Cl	6%
CCN(CC)c1ccc(NC2CC(=O)N(CCc3ccc(OC)cc3)C2=O)cc1 (centres undefined)	?
CCOC(=O)c1sc(NC(=O)C(CC)Sc2nnc3c4ccccc4n(CC)c3n2)nc1C (centres undefined)	-18%

(listing goes on)
mol	VDR inh
Cn1cnc2c(ncn2[C@@H]2O[C@H](CO)[C@@H](O)[C@H]2O)c1=N	-1%
CN(C(=O)COC(=O)c1cc([N+](=O)[O-])ccc1Sc1ccccc1)C1CCS(=O)(=O)C1 (centres undefined)	11%
CC(C)CNC(=O)NC(=O)COC(=O)c1cccc(NS(=O)(=O)c2ccc(F)c(F)c2)c1	0%
COc1ccc(CNC(=O)CN2C(=O)COc3ccc(S(=O)(=O)N4CCC(C)CC4)cc32)cc1	-8%&-9%
COc1ccccc1-n1c(SCC(=O)OC(C)C)nc2cccnc21	-23%
Cn1nc(C(C)(C)C)cc1C(=O)NNC(=O)c1ccc(C(F)(F)F)cc1	?

2 consecutive entries already listed, quoted:
mol	VDR inh
Cn1cnc2c(ncn2[C@@H]2O[C@H](CO)[C@@H](O)[C@H]2O)c1=N	-1%
CN(C(=O)COC(=O)c1cc([N+](=O)[O-])ccc1Sc1ccccc1)C1CCS(=O)(=O)C1 (centres undefined)	11%

Screens: PubChem, National Center for Advancing Translational Sciences (NCATS)
